# CCR6 antag: CCR6 receptor antagonists, primary screen, cell-based, CHO-K1, luminescence, beta-arrestin, uHTS; C-C chemokine receptor type 6 (Homo sapiens), P51684; CHO-K1 CCR6 PathHunter beta-arrestin, CCL20-stimulated; inhibition, % at 20 µM; 0.49% of 340,000 active;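 active = compounds whose inhibition of the agonist-driven luminescence signal at 20 µM reaches about 50%, limit read from the data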;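 also: cells stimulated with CCL20 at 14 nM final; plate controls were DMSO with CCL20 for no effect and DMSO without agonist for full effect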
# SENP8 block: SENP8 protease inhibitors, primary screen, biochemical, luminescence. 1.2% of 330,000 active. Sentrin-specific protease 8 (Homo sapiens), Q96LD8. inhibition, % at 10 µM. purified SENP8, Z-RLRGG-aminoluciferin cleavage; in the data active = inhibition above about 50%
# Target sequence (Q96LD8 whole entry, looked up): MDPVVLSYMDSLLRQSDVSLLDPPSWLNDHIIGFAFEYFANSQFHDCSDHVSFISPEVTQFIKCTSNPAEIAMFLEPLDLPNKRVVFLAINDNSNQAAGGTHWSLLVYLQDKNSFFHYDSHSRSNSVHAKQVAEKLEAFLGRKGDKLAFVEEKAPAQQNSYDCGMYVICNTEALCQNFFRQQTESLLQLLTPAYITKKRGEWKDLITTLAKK
# EBI2 antag: EBI2 receptor antagonists, beta-arrestin recruitment, primary screen, cell-based, luminescence, 7a,25-OHC stimulation, uHTS; G-protein coupled receptor 183 (Homo sapiens), P32249; 7a,25-OHC stimulated; inhibition, % at 5 µM; 0.81% of 360,000 active; AID 651636, 2012; in the data active = inhibition above about 38%;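 also: enzyme fragment complementation signal reports receptor beta-arrestin coupling in cells; 0% = agonist plus DMSO wells and 100% = wells without agonist; some results beyond the cut were filed as inactive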
# Target sequence (P32249 whole entry, looked up, the tested form may be a part): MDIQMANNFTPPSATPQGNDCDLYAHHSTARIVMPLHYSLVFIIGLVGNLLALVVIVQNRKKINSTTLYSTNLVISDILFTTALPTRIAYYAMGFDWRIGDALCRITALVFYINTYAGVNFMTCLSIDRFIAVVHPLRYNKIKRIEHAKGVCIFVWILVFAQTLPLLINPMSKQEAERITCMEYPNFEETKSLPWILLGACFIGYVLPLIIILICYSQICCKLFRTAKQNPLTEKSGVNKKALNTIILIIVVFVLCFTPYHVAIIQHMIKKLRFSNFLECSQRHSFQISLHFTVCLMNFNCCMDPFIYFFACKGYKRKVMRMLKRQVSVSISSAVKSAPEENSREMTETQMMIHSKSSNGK
# UBC13 polyUb: UBC13 polyubiquitin chain formation inhibitors, primary screen, biochemical, TR-FRET, uHTS. Ubiquitin-conjugating enzyme E2 N (Homo sapiens), P61088. inhibition, % at 20 µM. 0.47% of 330,000 active; in the data active = inhibition above about 45%, passing the limit was not always enough
# Target sequence (P61088 whole entry, looked up): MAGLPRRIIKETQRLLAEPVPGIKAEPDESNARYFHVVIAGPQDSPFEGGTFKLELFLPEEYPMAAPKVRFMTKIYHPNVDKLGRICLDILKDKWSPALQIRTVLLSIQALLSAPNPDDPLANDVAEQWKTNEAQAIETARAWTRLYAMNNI
# Gli-Sufu antag: Gli-Sufu pathway antagonists, primary screen, luciferase luminescence, Sufu-KO-LIGHT cells, uHTS; Sufu-KO-LIGHT fibroblasts, Gli luciferase reporter luminescence; inhibition, % at 5 µM; 0.74% of 340,000 active; AID 588413, 2011;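 active = inhibition above about 55%, limit read from the data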;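 also: 0% = DMSO-treated cells and 100% = wells with medium but no cells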
# Apaf-1 inh: inhibitors of human Apaf-1 apoptosome, primary screen, biochemical, DEVD-Rh110 fluorescence, uHTS; 0.71% of 330,000 active; reconstituted apoptosome caspase-3 activity; Apoptotic protease-activating factor 1 (Homo sapiens), O14727; inhibition, % at 20 µM; active = inhibition of at least 40% at 20 µM;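 also: plate controls were DMSO wells for no effect and DEVD-CHO caspase inhibitor wells for full effect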
#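 Assay system: Apoptosome proteins | Medium: pH 7.5 Hepes buffer with CHAPS, BSA, DTT | Also added: Cytochrome c and DEVD-Rh110 substrate | Times: 30 min plus 50 min, RT | Detection: Rhodamine 110 fluorescence at Ex 480/Em 540 nm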
# * = called active by the depositor; / = not tested or not shown; & = joins results of further samples.
structure	EBI2 antag	Apaf-1 inh	CCR6 antag	Gli-Sufu antag	SENP8 block	UBC13 polyUb
CCOC(=O)O[C@]1(C(=O)OCCl)CC[C@H]2[C@@H]3CCC4=CC(=O)C=C[C@]4(C)[C@H]3[C@@H](O)C[C@@]21C	/	-9.6	/	/	-15.2	1.0
NCC1CCC(C(=O)Oc2ccc(CCC(=O)O)cc2)CC1 (stereo unspecified)	7.7	-2.2	-5.1	-9.7	3.3	-5.1
c1ccc2c(c1)ccc1ncccc12	-15.3	2.3	3.9	3.8	1.3	-1.2
CC(=O)O[C@H]1C(=O)[C@@]2(C)[C@H]([C@H](OC(=O)c3ccccc3)[C@]3(O)C[C@H](OC(=O)[C@H](O)[C@@H](NC(=O)c4ccccc4)c4ccccc4)C(C)=C1C3(C)C)[C@]1(OC(C)=O)CO[C@@H]1C[C@@H]2O	-6.0	5.3	5.9	-1.4	5.5	10.1
CC1(C)NC(=O)N(c2ccc([N+](=O)[O-])c(C(F)(F)F)c2)C1=O	-8.9	-5.5	5.5	-0.5	5.8	2.6
Oc1cccc2cc3cccc(O)c3c(O)c12	-9.4	-23.8	31.5	4.4	4.7	-25.5
CC(=O)Oc1ccc(C(c2ccc(OC(C)=O)cc2)c2ccccn2)cc1	-7.8	1.9	3.6	-14.3	1.1	6.1
COc1cc(C(=O)NS(=O)(=O)c2ccccc2C)ccc1Cc1cn(C)c2ccc(NC(=O)OC3CCCC3)cc12	/	22.5	/	/	42.9	-36.8
OC[C@H]1O[C@@H]2O[C@H]3[C@H](O)[C@@H](O)[C@@H](O[C@H]4[C@H](O)[C@@H](O)[C@@H](O[C@H]5[C@H](O)[C@@H](O)[C@@H](O[C@H]6[C@H](O)[C@@H](O)[C@@H](O[C@H]7[C@H](O)[C@@H](O)[C@@H](O[C@H]1[C@H](O)[C@H]2O)O[C@@H]7CO)O[C@@H]6CO)O[C@@H]5CO)O[C@@H]4CO)O[C@@H]3CO	/	-2.7	-6.4	-6.8	-12.6	4.0
c1ccc(-c2nc[nH]c2-c2ccccc2)cc1	-5.0	9.8	1.6	4.1	0.0	1.1
CC(=O)OCC(=O)C1(O)CCC2C3CCC4=CC(=O)C=CC4(C)C3C(O)CC21C (stereo unspecified)	-9.9	0.8	2.2	5.4	-2.1	-14.0
Cc1c(N)cccc1[N+](=O)[O-]	4.8	4.2	-8.9	1.9	4.7	4.7
CC(=O)N1CCN(C(c2ccccc2)c2ccccc2)CC1	4.2	4.9	5.1	18.5	-10.5	-8.2
c1ccc(-c2ccccn2)nc1	1.9	-7.5	11.7	-22.7	2.1	-6.8
Cc1nc(SCC(=O)N2CCc3ccccc3C2)c2c(C)c(C)sc2n1	-10.9	24.1	9.9	10.3	-6.0	-0.3
C=Cc1c(C)c2cc3[nH]c(cc4nc(cc5nc(cc1[nH]2)C(C)=C5CCC(=O)O)C(CCC(=O)O)=C4C)c(C)c3C=C	4.2&0.6	10.6&20.7	33.4&23.4	5.5&21.3	11.3&-7.8	-43.7&-7.7
O=C1[C@H](CC[C@H](O)c2ccc(F)cc2)[C@@H](c2ccc(O)cc2)N1c1ccc(F)cc1	/	18.3	/	/	-7.8	-6.5
CCOC(=O)[C@H](CCc1ccccc1)N[C@H]1CCc2ccccc2N(CC(=O)O)C1=O	-1.8	10.4	8.3	16.6	-2.2	-5.4
CN(C)C(=O)Oc1cccc([N+](C)(C)C)c1	3.7&-3.6	-3.7&-13.1	-11.8&-1.8	11.0&2.3	0.5&0.7	0.2&5.4
CCN(CC)CCOC(=O)C(c1ccccc1)C1CCCCC1 (stereo unspecified)	-3.1	25.0	17.4	6.4	-5.4	8.0
CCOC(=O)C1=C(C)NC(C)=C(C(=O)OC)C1c1cccc([N+](=O)[O-])c1 (stereo unspecified)	17.8	-0.6	17.9	-1.7	9.8	14.9
Nc1ccc(Oc2ccc(Cl)cc2)cc1	-10.0	7.5	5.1	6.5	-189.8	3.3
C[C@H](CCC(=O)O)[C@H]1CC[C@H]2[C@@H]3CC[C@@H]4C[C@H](O)CC[C@]4(C)[C@H]3CC[C@]12C	-0.5	9.6	-11.3	2.9	3.9	-21.9
COc1ccc2nc(N)sc2c1	-9.8	-13.0	-1.1	-7.2	-11.1	4.1
CCCCCCCn1c2c(c(=N)c3ccccc31)CCC2	8.4	0.6	3.1	88.9*	-0.1	20.6
NCC(O)c1ccc(O)c(O)c1 (stereo unspecified)	-4.9	/	14.6	37.9	/	/
CCN1/C(=C/c2ccc3cc(C)ccc3[n+]2CC)Sc2cc(C)c(C)cc21	10.1	64.5*	16.7	91.2*	-1.4	16.0
COc1c(N2CCN[C@H](C)C2)c(F)cc2c(=O)c(C(=O)O)cn(C3CC3)c12	/	-9.5	2.5	7.3	8.5	19.4
Cn1c(NCCN(CCO)CCCc2ccc([N+](=O)[O-])cc2)cc(=O)n(C)c1=O	-1.3	-1.4	6.0	0.4	-9.2	-4.3
CC(=O)OC/C=C(\C)CCC=C(C)C	-9.0	4.5	3.3	3.8	-5.6	5.7
C[N+](C)(C)CCOC(=O)CCC(=O)OCC[N+](C)(C)C	-3.1	4.3	8.4	-0.6	1.4	6.8
CN1/C(=C\C=[N+](C)c2ccccc2)C(C)(C)c2ccccc21	-7.8	-6.8	-10.0	84.6*	3.1	5.2
CCCC(=O)c1ccc(O)cc1O	1.4	-0.9	/	/	1.2	2.8
O=[N+]([O-])c1cc(C(F)(F)F)ccc1Cl	4.8	0.6	-8.1	2.3	-1.9	1.6
CC(=O)OCC1=C(C(=O)O)N2C(=O)[C@@H](NC(=O)Cc3cccs3)[C@H]2SC1	0.2	5.4	5.2	6.5	-1.3	-13.3
OC[C@@H](O)[C@@H](O[C@H]1O[C@H](CO)[C@@H](O)[C@H](O)[C@H]1O)[C@H](O)[C@@H](O)CO	-0.2	-4.7	7.6	-6.9	6.5	-5.4
O=C(O)CP(=O)(O)O	-4.8	-10.5	7.5	-0.6	6.9	3.6
NCc1ccccc1	-5.2	-10.8	10.4	3.4	4.0	6.3
Cc1cc(C(C#N)c2ccc(Cl)cc2)c(Cl)cc1NC(=O)c1cc(I)cc(I)c1O (stereo unspecified)	3.9	5.5	33.3	-7.0	21.4	-22.9
CN1Cc2c(N)cccc2C(c2ccccc2)C1 (stereo unspecified)	-1.4&1.4	-3.7	-2.5&-4.3	0.8&-13.5	0.7	-10.1
CC1=C(C/C=C(\C)CCC[C@H](C)CCC[C@H](C)CCCC(C)C)C(=O)c2ccccc2C1=O	-1.2	4.5	-14.9	4.0	-11.5	-28.7
Cn1c(=O)c2c(ncn2CC(O)CO)n(C)c1=O (stereo unspecified)	-2.7	-8.0	6.1	-16.1	9.8	2.7
CN(C)CCOC(c1ccccc1)c1ccccc1 (tested in a mixture with another compound)	-5.6	3.9	10.5	8.7	-4.8	2.4
Nc1c2c(nc3c1CCC3)CCCC2	/	-10.0	/	/	4.4	10.7
Cc1ncc(CO)c(CO)c1O	-2.2	10.2	9.1	3.5	-3.0	-10.1
COc1ccc2cc3[n+](cc2c1OC)CCc1cc2c(cc1-3)OCO2	-3.6&-13.5	39.2&8.0	3.8&-1.1	61.3*	9.2&-11.5	-35.8&-49.7
CC(=O)c1ccc(NC(=O)c2ccc([N+](=O)[O-])o2)cc1	0.6	2.3	-11.8	18.4	-2.7	-16.3
CSc1ccc(C(=O)c2[nH]c(=O)[nH]c2C)cc1	-2.9	0.7	0.6	-22.8	3.6	-8.3
Fc1ccc([C@@H]2CCNC[C@H]2COc2ccc3c(c2)OCO3)cc1	9.7&1.3&3.6	18.0&30.1&36.0	13.2&22.7&25.3	9.2&12.0&8.3	2.9&-4.4&-18.9	22.2&34.7&12.6
Nc1nc(-c2ccccc2)cs1	-14.2	-19.0	3.5	-14.4	-14.6	-1.1

# Other entries.
structure	EBI2 antag	Apaf-1 inh	CCR6 antag	Gli-Sufu antag	SENP8 block	UBC13 polyUb
CC(C)C[C@H]1C(=O)N2CCC[C@H]2[C@]2(O)O[C@](NC(=O)C3C=C4c5cccc6[nH]c(Br)c(c56)C[C@H]4N(C)C3)(C(C)C)C(=O)N12 (stereo partly specified)	89.5*	20.6	2.0	5.7	2.6	-2.1
CCc1ccc(C(=O)CN2CCSC2=N)cc1	-10.9	-12.7	-2.4	-133.9	4.4	8.2
CCCCC1=NC2(CCCC2)C(=O)N1Cc1ccc(-c2ccccc2-c2nn[nH]n2)cc1	/	-2.4	/	/	-5.2	-12.0
CC(=O)S[C@@H]1CC2=CC(=O)CC[C@]2(C)[C@H]2CC[C@@]3(C)[C@@H](CC[C@@]34CCC(=O)O4)[C@H]12	-1.7	1.5	-3.5	3.6	3.7	2.5
CCn1c(/C=C/N(C)c2ccccc2)[n+](CC)c2ccc(Cl)cc21	-4.0	-1.5	5.9	85.4*	11.8	-3.3
CCCN(CCC)C1=CC(=[N+]2CCCC2)CC(C)(C)C1	15.3	1.3	20.9	82.4*	-9.4	-5.3
O=c1cc(-c2ccc(O)cc2)oc2cc(O)cc(O)c12	12.2	7.0	9.3	-1.6	54.4*	28.8
c1coc(CNc2ncnc3nc[nH]c23)c1	-3.2	-8.6	-0.8	-8.8	1.1	15.1
CC[N+](CC)(CC(=O)Nc1c(C)cccc1C)Cc1ccccc1	-6.6	-2.7	-2.9	1.0	2.1	-0.9
CS(=O)(=O)OCCCCOS(C)(=O)=O	-4.3	-11.6	-3.6	-6.6	6.6	6.9
O=C(c1ccccc1)c1ccccc1	-0.9	-6.9	-4.1	7.2	-4.5	5.2

# In the list so far, 7 contain a carbonyl joined to an NH by a bond outside any ring:
structure	EBI2 antag	Apaf-1 inh	CCR6 antag	Gli-Sufu antag	SENP8 block	UBC13 polyUb
CC(=O)O[C@H]1C(=O)[C@@]2(C)[C@H]([C@H](OC(=O)c3ccccc3)[C@]3(O)C[C@H](OC(=O)[C@H](O)[C@@H](NC(=O)c4ccccc4)c4ccccc4)C(C)=C1C3(C)C)[C@]1(OC(C)=O)CO[C@@H]1C[C@@H]2O	-6.0	5.3	5.9	-1.4	5.5	10.1
COc1cc(C(=O)NS(=O)(=O)c2ccccc2C)ccc1Cc1cn(C)c2ccc(NC(=O)OC3CCCC3)cc12	/	22.5	/	/	42.9	-36.8
CC(=O)OCC1=C(C(=O)O)N2C(=O)[C@@H](NC(=O)Cc3cccs3)[C@H]2SC1	0.2	5.4	5.2	6.5	-1.3	-13.3
Cc1cc(C(C#N)c2ccc(Cl)cc2)c(Cl)cc1NC(=O)c1cc(I)cc(I)c1O (stereo unspecified)	3.9	5.5	33.3	-7.0	21.4	-22.9
CC(=O)c1ccc(NC(=O)c2ccc([N+](=O)[O-])o2)cc1	0.6	2.3	-11.8	18.4	-2.7	-16.3
CC(C)C[C@H]1C(=O)N2CCC[C@H]2[C@]2(O)O[C@](NC(=O)C3C=C4c5cccc6[nH]c(Br)c(c56)C[C@H]4N(C)C3)(C(C)C)C(=O)N12 (stereo partly specified)	89.5*	20.6	2.0	5.7	2.6	-2.1
CC[N+](CC)(CC(=O)Nc1c(C)cccc1C)Cc1ccccc1	-6.6	-2.7	-2.9	1.0	2.1	-0.9

# Screening data from PubChem BioAssay.

# These rows are one share of the data; count on the stated rates, not on these rows.
